High-throughput results (PubChem)
Calb biofilm kill = mixture kills Candida albicans biofilm cells. C. albicans biofilm persisters + clotrimazole, fluorescence viability; primary screen in compound mixtures of four per well. inhibition, % at 7.6 µM. 0.02% of 120,000 active;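 active means inhibition above 30.3% in the primary screen of four-compound pools, then above 30% when the compound was retested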;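 further: compounds exposed to preformed 24 h biofilms for 48 h; the number belongs to the whole pool; some results filed as inactive read as strong as hits; inactives centre near 12; 0% = biofilm with clotrimazole alone and 100% = kill control; retested singly at about 60 µM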
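Assay system: C. albicans biofilms / Medium: RPMI/MOPS medium, pH 7.0 / Schedule: biofilm formation 24 h, compound exposure 48 h, 37 °C / Measured by: Alamar Blue fluorescence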
An asterisk follows results filed as active; & = joins results of further samples. This is a subset (hit frequency here may not be typical).

SMILES | Calb biofilm kill
COc1ccc(NC(=O)CSc2nnc(CNc3ccc(C)cc3)n2C)cc1 | 6
O=C(CSc1nc(-c2ccc(Cl)cc2)[nH]c(=O)n1)Nc1cccc(Cl)c1 | 29
COc1cc(/C=C2\SC(N)=NC2=O)ccc1OCC(=O)Nc1ccc(C)cc1 | 14
CC(=O)c1ccc(OCC(=O)c2cc(C)n(-c3ccc4c(c3)OCO4)c2C)cc1 | 13
Cc1nc2ccccc2c2c(N)c3ccccc3n12 | 22
Nc1ccnn1-c1ccccc1 | 25
C=CSc1sc(Cl)c(N(CC)CC)c1[N+](=O)[O-] | 9
Cc1ccc2cc3c(N)c4c(C)ccc(C)c4nc3nc2c1 | 11
C#CCOCCOCCOCCNc1nc(N2CCN(C(=O)[C@H](CCC(=O)O)n3cc(C(N)[C@H](C)CC)nn3)CC2)nc(N2CCN(C(=O)[C@H](Cc3cc4ccccc4[nH]3)n3cc(C(N)[C@H](C)CC)nn3)CC2)n1 (stereo not given in full) | 15
Cc1ccc(-c2ccccc2)n1-c1ccc(C(=O)O)cc1 | 10
FC(F)(F)c1nnc(Nc2ccc(Cl)cc2)s1 | 29
COc1ccc(OCC(=O)OC2CCCN(C)C2)cc1 (stereo not given) | 22
O=C(O)CCN1C(=O)C2C3CC(C2C1=O)C1C(c2ccccc2)c2sc(=O)n(-c4ccccc4)c2SC31 (stereo not given) | 13
CC(C)c1ccc(NC(=S)N(C)CCc2ccccn2)cc1 | 0
CC(C)(C)C(=O)NC(=S)Nc1ccccc1N1CCCC1 | 11
COc1ccc(NC(=O)c2ccc3nc(-c4ccccc4)c(-c4ccccc4)nc3c2)c(OC)c1 | -12
O=C1CSC(c2cccc([N+](=O)[O-])c2)N1c1ccccc1F (stereo not given) | 11
CCSc1nnc(NC(=O)CSc2nnc(CNC(=O)c3cc(OC)c(OC)c(OC)c3)o2)s1 | -4
Cc1cc(C)n2c(=O)c3ccc(Cl)cc3nc2c1C#N | 10
Cn1cc(Cl)c(C(=O)Nc2nc3ccc([N+](=O)[O-])cc3s2)n1 | 23
C=CCN1C=CC(=O)CC1 | 13
Cc1cc2ccccn2c1C(=O)Nc1ccccc1 | 9
O=C(NN1C(=O)C2C3c4ccccc4C(c4ccccc43)[C@@H]2C1=O)c1ccccc1 (stereo not given in full) | 1
CCOC(=O)c1sc2nccc(OC)c2c1N=CNOC | 8
Cc1ccc(CSc2nnc(SCC(=O)N/N=C/C=C/c3ccco3)s2)cc1 | 17
CCCc1cc(=O)oc2c3c(c4c(c12)OC(C)(C)C=C4)OC(C)C(C)C3O (stereo not given) | 7
N#CC1=C(N)OC2=C(CC/C2=C\c2ccc(F)cc2)C1c1ccc(F)cc1 (stereo not given) | 8
COc1ccnc(Oc2ccc(F)cc2)c1C#N | 15
Cc1cc(C)c2c(N)c(C(=O)c3ccc(Cl)cc3)sc2n1 | 0
NC(=O)NCc1cccs1 | 10
Cc1ccc(-n2cc[nH]c2=S)c(C)c1 | 4
COc1ccccc1NC(=O)CN(Cc1ccco1)C(=O)c1ccc(=O)[nH]c1 | 8
O=C(CSc1nnc(-c2ccccc2)c2ccccc12)NCC1CCCO1 (stereo not given) | 10
CCOc1ccc(NC(=O)/C=C/c2ccc(OC)cc2)c([N+](=O)[O-])c1 | 13
Cc1ccc(C(=O)Oc2cc(N)n(S(=O)(=O)c3ccc(C)cc3)n2)cc1 | 7
CCCc1cc(C(=O)Nc2cnn(Cc3ccc(F)cc3)c2)no1 | 19
C/C(=N/NC(=O)C1CCN(S(=O)(=O)c2ccc(C)cc2)CC1)c1cccc([N+](=O)[O-])c1 | 12
CCCCC(CC)CNC(=O)Cn1c(=O)[nH]c2ccsc2c1=O (stereo not given) | 9
CN(C)S(=O)(=O)N1CCN(c2ccc([N+](=O)[O-])c(N3CCOCC3)c2)CC1 | 12
CC1=CSC2=NC(=O)/C(=C/c3cccc(OC(=O)c4ccco4)c3)C(=N)N12 | 14
CC(C)(C)NC(=O)C(c1cccs1)N(Cc1cccs1)C(=O)c1ccc(CN2CCOCC2)o1 (stereo not given) | 15
O=C(COC(=O)CNC(=O)c1ccccc1F)Nc1cccc(S(=O)(=O)N2CCCCCC2)c1 | 5
COc1cccc(C(=O)Nc2ccc(C(F)(F)F)n(C)c2=O)c1 | 17
CS(=O)(=O)N1CCC(C(=O)N2CCN(c3ccc(F)cc3)CC2)CC1 | 14
O=C(NCCCCc1ccccc1)C1CC(c2cccc(F)c2)=NO1 (stereo not given) | 7
CC1CN(S(=O)(=O)c2cccc3nsnc23)CC(C)O1 (stereo not given) | 2
CCN1CCN(CCCN(Cc2cccs2)C(=S)Nc2ccccc2C)CC1 | 10
COc1cc(NC(=S)N2CCc3ccccc3C2)cc(OC)c1 | 13
Nc1ccc(C(=O)OCC(=O)Nc2ccc3c(c2)OCO3)cc1[N+](=O)[O-] | -8
O=Cc1ccc(-c2ccc(C(=O)O)cc2)o1 | 25
Carrying on:
SMILES | Calb biofilm kill
Cc1c(Cl)cccc1NC(=S)N1CCN(c2ncccn2)CC1 | 7
CCO/C=C1\C(=O)N(c2ccc(OCC)cc2)C(=O)c2ccccc21 | 12
COC(=O)c1ccccc1C(=O)N1CCCC(C(=O)c2cc(F)ccc2F)C1 (stereo not given) | 15
CN(C(=O)c1cccn(Cc2ccccc2)c1=O)c1ccccc1 | 9
O=C(CSC1=NNC(c2ccccn2)S1)Nc1cccc(Cl)c1 (stereo not given) | 15
c1ccc(C2=Nc3c(ccc4ccccc34)C(c3ccncc3)=NN2)cc1 | 10
O=C(NCC1CCCO1)c1cccc(S(=O)(=O)NCc2ccccc2)c1 (stereo not given) | 9
Cc1[nH]n(-c2ccccc2)c(=O)c1C=Nc1ccc(S(=O)(=O)N(C)C)cc1 | 8
CCOC(=O)CNCCC(=O)c1ccc(Br)cc1 | 8
CC1CCN(C(=S)c2cccc(O)c2)CC1 | 11
COc1ccc(-c2ccc3c(n2)sc2c(=O)[nH]c(=O)[nH]c23)cc1OC | 6
CCn1c(SC2CCOC2=O)nnc1-c1ccc(Cl)cc1 (stereo not given) | -2
Cn1c(SCC(=O)NNC(=S)Nc2ccccc2)nnc1-c1ccccc1 | 24
O=C(Cc1cc(=O)[nH][nH]1)N/N=C/c1cccc(Cl)c1Cl | 10&15
COC(=O)c1sccc1NC(=S)N1CCN(c2ccccc2F)CC1 | 15
NS(=O)(=O)c1ccc(NC(=S)NCc2ccccc2Cl)cc1 | 15
O=C(NC(CC(=O)N1CCN(c2ccccc2)CC1)c1ccccc1)c1ccccc1Cl (stereo not given) | 9
CCOC(=O)CNS(=O)(=O)c1ccc(C)cc1 | 17
Cn1c(=O)c(=O)n(C)c2cc(S(=O)(=O)N3CCCC3C(=O)NCc3cccnc3)ccc21 (stereo not given) | 28
N#Cc1ccc(C23CC4(C2)[C@H](CN(Cc2ccc(-c5ccccc5)cc2)[C@@H]4c2ccccc2)C3c2ccc(C(F)(F)F)cc2)cc1 (stereo not given in full) | 17

Arranged by length of the SMILES (rising): part of the list above
SMILES | Calb biofilm kill
NS(=O)(=O)c1ccc(NC(=S)NCc2ccccc2Cl)cc1 | 15
O=C(Cc1cc(=O)[nH][nH]1)N/N=C/c1cccc(Cl)c1Cl | 10&15
COc1ccc(-c2ccc3c(n2)sc2c(=O)[nH]c(=O)[nH]c23)cc1OC | 6
O=C(NC(CC(=O)N1CCN(c2ccccc2)CC1)c1ccccc1)c1ccccc1Cl (stereo not given) | 9

Next records follow.
SMILES | Calb biofilm kill
CCCC[n+]1ccn(-c2nc3ccccc3nc2[N-]S(=O)(=O)c2cccs2)c1 | 5
CNc1ccc(SC#N)cc1 | -8
COc1ccc(-c2nc(C=O)cs2)cc1 | 26
O=C(NC(=S)Nc1ccc(S(=O)(=O)Nc2nccs2)cc1)C1CC1 | 12
O=C(NNC(=O)c1csc(-c2cccnc2)n1)c1ccccc1 | 10
CCc1nnc(NC(=O)CSc2nc3ccccc3c(=O)n2CCCOC)s1 | 15
CCN(CC)C(=O)NCc1c(C)cc(C)cc1C | -1
O=C(NC1CC1)C1=C[C@@H](c2c[nH]c3ccccc23)C[C@@H](OCCCCO)O1 | 11
C/C(=N\NC(=O)c1ccc(CN(C)S(=O)(=O)c2ccc(C)cc2)cc1)c1ccc(OC(F)F)cc1 | 0
C/C(=N/NC(=S)Nc1ccccc1)c1ccc2c(c1)OCO2 | 6
COC(=O)c1sc(NC(=S)NC(=O)c2ccccc2C)nc1C | 15
CN(C)S(=O)(=O)c1cccc(NC(=O)c2n[nH]c(=O)c3ccccc23)c1 | 11
CN(C)c1ccc(/C=N/NC(=O)c2nonc2N)cc1[N+](=O)[O-] | 21
COc1ccc(NC2c3ccccc3C(=O)N2c2ccccn2)cc1 (stereo not given) | 19
COc1ccc(N2CCN(CC(O)COc3ccccc3[N+](=O)[O-])CC2)cc1 (stereo not given) | 19
COc1ccc(CC2S/C(=N/N=C/c3ccc(O)cc3)NC2=O)cc1 (stereo not given) | 7
COc1cccc(CNC2CCCc3ccccc32)c1OC (stereo not given) | 9
Nc1ccc(-c2cc(-c3ccc(N)cc3)nc(-c3ccccc3)n2)cc1 | 0
O=C1NC(CCc2ccccc2)C(=O)N1Cc1ccc(Br)cc1 (stereo not given) | 0
CC(C)(C)C(=O)NC(=S)Nc1ccccc1C(N)=O | 14
COc1ccccc1-c1nnc(SCC(=O)NC2CCS(=O)(=O)C2)n1N (stereo not given) | 13
COc1ccccc1OCCN1CSC(=S)N(C)C1 | 18
Cc1cc(=O)oc2c(C(=O)c3ccccc3)c(OCC(N)=O)ccc12 | 24
O=C(/C=C/c1ccccc1)NC1CCCc2ccccc21 (stereo not given) | 17
Cc1nn(C)c(C(=O)N2CCN(C(=O)c3ccco3)CC2)c1Br | 18
O=C(NNC(=O)C1CCCN(S(=O)(=O)c2ccc3ccccc3c2)C1)C1CC1 (stereo not given) | 10
O=C(CC(=O)c1cccc([N+](=O)[O-])c1)Nc1ccccc1Cl | 0
CC(C)N1CCN(Cc2cnc(-c3ccccc3)s2)CC1CCO (stereo not given) | 16
OCCC1CN(Cc2ccc3ncccc3c2)CCN1Cc1ccccc1 (stereo not given) | 4
CCCN1CCC(NCc2cn(C)nc2-c2ccc(Oc3ccccc3)cc2)CC1 | 30
CCN(CC)c1ccc(NC(=O)Cn2c(C(C)NC(=O)c3ccc(C)cc3)nc3ccccc32)cc1 (stereo not given) | 7
COc1ccc(C2/C=C\CN(C(=O)c3ccccc3)CC(=O)N2Cc2ccc(F)cc2)cc1 (stereo not given) | 7
CCOC(=O)Cn1nc(-c2ccccc2)c2cnc3ccc(CC)cc3c21 | 9
O=S(=O)(NNc1ccc(Cl)nn1)c1ccc(F)cc1 | 19
COc1ccc(CCNCC(O)c2ccccc2)cc1 (stereo not given) | 12
CCCN1CNc2c(c(=O)[nH]c(=S)n2CCc2ccccc2)C1 | 10
Cc1ccc(/C(O)=C/c2nc3ccccc3oc2=O)cc1 | 19
Cc1cccc(CSc2nc3c(c(=O)[nH]2)CCC3)c1 | 13
CCNc1c(NC(C)=O)c(=O)oc2ccccc12 | 19
Cc1ccc2nc(SCC(=O)NNC(=O)c3ccccc3)[nH]c2c1 | 16
COC(=O)C1=NNC(C(=O)c2ccco2)C1c1ccccc1 (stereo not given) | 13
Cc1ccc(S(=O)(=O)NC2c3cccc4cccc(c34)C2Sc2nncn2C)cc1 (stereo not given) | 7
Cc1cc(Cl)nc(-c2ccccc2O)n1 | 14
COC(=O)CSc1nnc(-c2ccccn2)n1N | 17
FC(F)(F)c1cc(CCN2C(=S)NC[C@@H]2CC2CCCCC2)cc(C(F)(F)F)c1 | 17
NS(=O)(=O)c1ccc(CCNC(=O)c2cccc(OC(F)F)c2)cc1 | 18
O=C(O)CC(NC(=O)COc1ccccc1)c1cccc([N+](=O)[O-])c1 (stereo not given) | 13
O=C(Nc1cccc(O)c1)C(=O)Nc1ccccn1 | 6
CC(=O)Nc1ccc(NC(=O)CCCSc2nc3ccccc3[nH]2)cc1 | 15
COc1cc(S(=O)(=O)N2CCOCC2)ccc1NC(=O)CN1c2cccc3cccc(c23)S1(=O)=O | 15
Going on with the list.
SMILES | Calb biofilm kill
O=C(Nc1ccccc1)/C(=C\c1cccs1)NC(=O)c1ccccc1 | 19
N#Cc1sc2nc(-c3ccccc3)cc(C(F)(F)F)c2c1N | 9
CC(=O)c1c(COC(=O)c2ccccc2Cl)nc2ccccc2[n+]1[O-] | 14
Cc1ccc(NC(=O)CCN2C(=O)c3cccc4cccc(c34)C2=O)cc1 | 20
COc1cc(CNCc2ccccn2)ccc1OCc1ccccc1Cl | 16
O=C(COC(=O)/C=C/c1cccc(Br)c1)NCCC1=CCCCC1 | 9

Compounds from the list above containing an aryl thioether with sulfur outside any ring, in the order listed:
SMILES | Calb biofilm kill
COc1ccc(NC(=O)CSc2nnc(CNc3ccc(C)cc3)n2C)cc1 | 6
O=C(CSc1nc(-c2ccc(Cl)cc2)[nH]c(=O)n1)Nc1cccc(Cl)c1 | 29
C=CSc1sc(Cl)c(N(CC)CC)c1[N+](=O)[O-] | 9
CCSc1nnc(NC(=O)CSc2nnc(CNC(=O)c3cc(OC)c(OC)c(OC)c3)o2)s1 | -4
Cc1ccc(CSc2nnc(SCC(=O)N/N=C/C=C/c3ccco3)s2)cc1 | 17
O=C(CSc1nnc(-c2ccccc2)c2ccccc12)NCC1CCCO1 (stereo not given) | 10
CCn1c(SC2CCOC2=O)nnc1-c1ccc(Cl)cc1 (stereo not given) | -2
Cn1c(SCC(=O)NNC(=S)Nc2ccccc2)nnc1-c1ccccc1 | 24
CCc1nnc(NC(=O)CSc2nc3ccccc3c(=O)n2CCCOC)s1 | 15
COc1ccccc1-c1nnc(SCC(=O)NC2CCS(=O)(=O)C2)n1N (stereo not given) | 13
Cc1cccc(CSc2nc3c(c(=O)[nH]2)CCC3)c1 | 13
Cc1ccc2nc(SCC(=O)NNC(=O)c3ccccc3)[nH]c2c1 | 16
Cc1ccc(S(=O)(=O)NC2c3cccc4cccc(c34)C2Sc2nncn2C)cc1 (stereo not given) | 7
COC(=O)CSc1nnc(-c2ccccn2)n1N | 17
CC(=O)Nc1ccc(NC(=O)CCCSc2nc3ccccc3[nH]2)cc1 | 15
